Screening results as filed in PubChem.
NPYLR7 ag – agonists of mosquito NPYLR7 receptor, primary screen, cell-based, Aedes aegypti, calcium fluorescence, mosquito biting behavior | HEK293T NPYLR7/Galpha15, GCaMP6s calcium fluorescence | Aedes aegypti neuropeptide Y-like receptor 7 (NPYLR7) | 0.15% of 270,000 active | activation, % at 10 µM; in the data active = activation above about 40%;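 note: 0% = vehicle and 100% = reference agonist at the receptor; some compounds past the cut are filed as inactive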
NPYLR7 ag max-min – recorded beside NPYLR7 ag, whose call it bears; activation, %; measured here: Max-Min RFU normalised activation; some inactives read as strong as hits;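 span of the calcium signal over five minutes; 0% = vehicle and 100% = native peptide agonist; compound fluorescence can raise it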
Starred values were filed as active, the others as inactive; & = joins results of further samples. The list is partial. The share of hits here may be higher or lower than overall.

Start of the listing, in advance, 4 compounds:
Each structure is followed by: NPYLR7 ag	NPYLR7 ag max-min
CC(C)COC(=O)C(C)NC(=O)CC1CCCC1 (stereo not drawn)
 : -1	-7
CNC(=O)C1CC(=O)N(C2CCCCCC2)C1 (stereo not drawn)
 : 10	5
CCOc1ccc(C(=O)N2CCN(c3ccc(-n4nc(C)cc4C)nn3)CC2)cc1OCC
 : -6	-12
CC(SCc1nc2ccsc2c(=O)[nH]1)c1cccs1 (stereo not drawn)
 : 4	4

This part in full, from the start:
Each structure is followed by: NPYLR7 ag	NPYLR7 ag max-min
CC(C)COC(=O)C(C)NC(=O)CC1CCCC1 (stereo not drawn)
 : -1	-7
CNC(=O)C1CC(=O)N(C2CCCCCC2)C1 (stereo not drawn)
 : 10	5
CCOc1ccc(C(=O)N2CCN(c3ccc(-n4nc(C)cc4C)nn3)CC2)cc1OCC
 : -6	-12
CC(SCc1nc2ccsc2c(=O)[nH]1)c1cccs1 (stereo not drawn)
 : 4	4
Cc1nc2ccccn2c1CN1CCN(CC(=O)Nc2ccc(F)cc2)CC1
 : 2	-6
O=C1Nc2ccccc2C1=Nn1ncc2ccccc21
 : -6	-6
COc1ccc(NC(=O)C2(C)CCN2Cc2ccccc2OC(F)F)cc1OC (stereo not drawn)
 : -4	-6
COc1ccnc(CN2CCC(c3ccc(C(=O)O)cc3)C2)c1OC (stereo not drawn)
 : 4	1
CN(CCc1ccccn1)c1ncccc1CNC(=O)c1n[nH]c2c1CCCC2
 : -4	-11
CCN(CCN1CCOCC1)C(=O)c1nc2cccc(C)n2c1F
 : 0	-6
N#Cc1ccc(NCCc2ccc(Cl)cc2)nc1
 : 13	8
CCCc1nc(N2CCCN(C(=O)Nc3ccccc3F)CC2)c2c(-c3cccc(C(F)(F)F)c3)noc2n1
 : 17	9
CC(C)c1nc2sc3c(NCCCN(C)C)ncnc3c2c2c1CCCC2
 : -7	-7
Cn1ccnc1C(O)(CCNc1nc2ccccc2s1)C(F)(F)F (stereo not drawn)
 : -2	-7
Fc1cccc(F)c1-c1nc(CSc2nc3cc(Cl)ccc3o2)cs1
 : 27	28

Each structure is followed by: NPYLR7 ag	NPYLR7 ag max-min
CCn1c(=N)n(CC(O)c2ccco2)c2ccccc21 (stereo not drawn)
 : -2	-3
CN1CC2(CCCN(c3nc(-c4ccccc4)no3)CC2)OC1=O (stereo not drawn)
 : 1	-1
Cc1ccc(CN(Cc2nc3cc(C)ccc3o2)C(=O)Cc2ccccc2)cc1
 : 1	-7
Cc1cc(OCC(O)CN2CCNCC2)ccc1Cl (stereo not drawn)
 : -3	1
CC(C)Nc1nnc(SCc2cc([N+](=O)[O-])cc3c2OCOC3)s1
 : 0	7
Cc1nnc(SCC(=O)NCCc2ccc(Cl)cc2Cl)n1-c1ccccc1
 : 9	15
Cc1cc2nn(CN(CCC#N)CCC#N)c(=S)n2c2ccccc12
 : 8	10
COc1ccccc1C1CCN(Cc2csc(-c3ccc(Cl)cc3)n2)CC1
 : 0	13
Cc1cc(=O)[nH]c(CCNC(=O)c2cccc3ccnn23)n1
 : 32	19
CC(=O)N1c2ccccc2C[C@H]1C(=O)NCC1CCC(C(N)=O)CC1 (stereo partly drawn)
 : 2	3
Cc1ccccc1C(=O)Nc1sc2c(c1C(=O)Nc1cccc3ccccc13)CCCC2
 : 2	4
COc1ccccc1C(=O)N1CCN(C(C(=O)Nc2ccc(C(C)C)cc2)C2CCCC2)CC1 (stereo not drawn)
 : -1	1
Cc1nnc(SCc2nc(-c3ccc(C(C)C)cc3)no2)n1C1CC1
 : 1	9
CC(C)CN1CCN(C(=O)c2ccc(-c3cc(-c4ccccc4)n[nH]3)cc2)CC1
 : -1	-3
COC(=O)[C@H]1C[C@@H](O)CCN1C(=O)c1scc2c1CCCC2
 : 0	-7

3 entries out of the list, sorted by heavy-atom count, largest number first:
Each structure is followed by: NPYLR7 ag	NPYLR7 ag max-min
Cc1ccccc1C(=O)Nc1sc2c(c1C(=O)Nc1cccc3ccccc13)CCCC2
 : 2	4
CC(C)CN1CCN(C(=O)c2ccc(-c3cc(-c4ccccc4)n[nH]3)cc2)CC1
 : -1	-3
Fc1cccc(F)c1-c1nc(CSc2nc3cc(Cl)ccc3o2)cs1
 : 27	28

New compounds follow.
Each structure is followed by: NPYLR7 ag	NPYLR7 ag max-min
CCc1ccc2c(c1)NC(=O)C2(C)Cc1ccc(C(F)(F)F)nc1 (stereo not drawn)
 : 0	8
COc1cccc(NC(=O)CSc2nc3c(c(=O)n2-c2cc(C)cc(C)c2)SCC3)c1
 : -2	-4
COc1ccc(OCCn2c(C3CC(=O)N(c4ccccc4OC)C3)nc3ccccc32)cc1 (stereo not drawn)
 : -1	12
CCOC(=O)c1ccc(N2CCn3c2nc2c3c(=O)n(CCCO)c(=O)n2C)cc1
 : 5	2
c1ccc(-c2nc3cc(Oc4ccc5oc(-c6ccccn6)nc5c4)ccc3o2)nc1
 : 3	0
COc1ccc(Cl)cc1-c1nc(C=Nc2ccc(Br)cn2)c(O)o1
 : -2	-9
COC(=O)C1=C(C)NC(=O)NC1c1cc(OC)ccc1OC (stereo not drawn)
 : -3	-4
CCOC(=O)C(C)Sc1ncnc2c1nnn2Cc1ccc(Cl)cc1 (stereo not drawn)
 : 13	10
CC(C)(C)c1cc2nc(-c3ccccc3F)cc(C(=O)N3CCC4(CC3)OCCO4)n2n1
 : -6&10	-3&13
CC(=O)c1cccc(NC(=O)CCn2nnc3ccccc3c2=O)c1
 : 3	2
Cc1c(C(=O)NCC2(O)CCCNCC2)sc2ccccc12 (stereo not drawn)
 : 8	5
COc1ccccc1CCCN1CCC2(CC1)OCc1cc(-c3cccc(F)c3)ccc1O2
 : -8	-15
Cc1n[nH]c(C)c1CCC(=O)NCc1cccnc1N1CCCN(C)CC1
 : 3	-1
Cc1ccc(-n2c(SCc3ccccc3)nnc2C(C)NC(=O)Nc2ccc(F)c(F)c2)cc1 (stereo not drawn)
 : -2	5
CCCCCOc1ccc(C2Nc3ccccc3C(=O)N2NC(=O)c2ccncc2)cc1 (stereo not drawn)
 : -3	-8

Each structure is followed by: NPYLR7 ag	NPYLR7 ag max-min
CCOc1ccc(/C=C/C(=O)Nc2nccs2)cc1
 : 0	1
CCn1nc(C)c(NC(=O)CN2CCC(c3nc4c(C)cccc4[nH]3)CC2)c1C
 : -2	5
O=C(O)c1cc2n(n1)CCN(Cc1cn[nH]c1C1CCCCC1)C2
 : -1	6
C=C(C)Cn1c(=O)c2c(nc3n(-c4ccccc4O)c(C)c(C)n23)n(C)c1=O
 : 4	7
COc1cc(/C=C/CN2CCN(Cc3ccc(C)o3)C(CCO)C2)ccc1O (stereo not drawn)
 : 8	1
COc1cc(OC)c(CNC(=O)NCc2ccc(C#N)cc2)c(OC)c1
 : 2	1
COc1ccc(CC(=O)NC(C)c2nnc(SCc3cccc(OC)c3)n2-c2cc(Cl)ccc2C)cc1 (stereo not drawn)
 : 24	24
O=C(NC1CC1)C1CCCN(C2CCN(c3ccnc4ccccc34)CC2)C1 (stereo not drawn)
 : 26	20
COC(=O)C1=C(C)NC2=C(C(=O)CC(c3ccccc3)C2)C1c1ccc(Cl)cc1 (stereo not drawn)
 : 4	4
Cn1nccc1C(=O)Nc1sc2c(c1C#N)CCC2
 : -5	-7
O=C(NC(c1ccccc1)c1ccc(Cl)cc1)C1CC=CCC1C(=O)N1CCN(c2ccccn2)CC1 (stereo not drawn)
 : 8	7
COC(=O)C(Cc1ccccc1)NC(=O)c1ccc(-n2nc(-c3ccc(Cl)cc3)cc2N)cc1 (stereo not drawn)
 : -9	-11
Cc1ccc(C=Cc2sc3ccccc3[n+]2CCCS(=O)(=O)O)cc1
 : 17	10
COC(=O)c1ccc(COn2c(=O)c(-c3cccs3)[n+]([O-])c3ccccc32)cc1
 : 0	-7
CCOC(=O)Cn1nc(C(C)C)c2cnn(-c3ccc(F)cc3)c2c1=O
 : 5	3

Each structure is followed by: NPYLR7 ag	NPYLR7 ag max-min
CCOc1ccccc1CN1CCN(Cc2ccc3cc(F)ccc3n2)CC1CCO (stereo not drawn)
 : -5	-5
COc1ccc(NC(=O)c2nnn(CC(=O)Nc3ccc(C)cc3C)c2N)c(OC)c1
 : -5	-10
Cc1cccc(C(=O)NC(=NCc2ccc3c(c2)OCO3)OC(C)C)c1
 : 9	9
CCCCOC(=O)NS(=O)(=O)c1sc(CC(C)C)cc1-c1ccc(Cn2c(CC)nc3c(C)cc(C)nc32)cc1
 : 4	-44
O=C(N=Nc1c(O)[nH]c2ccccc12)c1cnc2ccccc2c1
 : -2	-7
O=C(CN1C(=O)NC(c2cccc(Cl)c2)C2=C1COC2=O)Nc1ccc(F)cc1F (stereo not drawn)
 : -8	-10
COCCN(Cc1nc(-c2ccc(OC)cc2F)oc1C)C(C)C
 : -7	-12
CC(C)S(=O)(=O)c1ncc(CN(C)C)n1CCc1ccccc1
 : 2	-4
CCOc1ccc(NC(=O)N2CCCN(c3nc(Cc4ccc(C)cc4)nc4onc(-c5cccnc5)c34)CC2)cc1
 : 11	-1
CC(C)CCN1c2nc(Nc3cc(F)c(O)c(F)c3)ncc2N(C)C(=O)C1C (stereo not drawn)
 : -4	-10
Cc1noc(C(C)N2CCN(S(=O)(=O)N3CCOCC3)CC2)n1 (stereo not drawn)
 : -2	-5
COC(=O)C1=C(O)/C(=C\c2ccncc2)SC1=Nc1ccc(OC)c(OC)c1
 : -4	-3
COc1ccc(S(=O)(=O)N(CC(=O)Nc2cc(-c3ccccc3)nn2-c2ccc(C)cc2)CC(C)C)cc1
 : 0	11
COc1cc(CN2CCc3c([nH]c4ccccc34)C2c2cccc(O)c2)cc(OC)c1OC (stereo not drawn)
 : 11	-4
CCOC(=O)C1CCN(CC(=O)N2N=C(c3ccc(C)cc3C)CC2c2ccc(OC)cc2)CC1 (stereo not drawn)
 : -5	-2

Each structure is followed by: NPYLR7 ag	NPYLR7 ag max-min
O=C(CCC1CCCC1)N1CCN(S(=O)(=O)c2ccc3c(c2)OCCCO3)CC1
 : 6	6
CCCCCc1ccc(C(=O)N2CCCN(c3nc4ccccc4nc3C(=O)OCC)CC2)cc1
 : 5	4
COc1ccccc1CN1CCn2nc(C(=O)O)cc2C1=O
 : -12	-8
CCN1N=C(C(=O)NCCc2nc3cc(C)ccc3s2)CCC1=O
 : 8	5
Cc1ccc(NC(=O)CN2c3ccccc3NC(=O)C2(C)C)cc1
 : -23	-25
Cn1c(=O)oc2cc(S(=O)(=O)NCC3CCCO3)ccc21 (stereo not drawn)
 : 5	4
Cc1ccc(C)c(S(=O)(=O)N(C(=O)c2ccncc2)c2ccc(OC(=O)c3ccncc3)cc2)c1
 : 2	2
O=C(NS(=O)(=O)CCc1ccccc1)C1CCCC1
 : 18	11
Cc1cccc(C(=O)N2CCCC(OCc3cc(F)cc(F)c3)C2)c1 (stereo not drawn)
 : -12	-11
O=C(Nc1n[nH]c(C(F)(F)F)n1)c1cccc(Br)c1
 : -4	-1
COCCCN(Cc1csc(COc2ccccc2C(C)C)n1)C(=O)C1CCCC1
 : -1	6
COCCn1c(=O)c2c(nc3n(-c4ccc(C(F)(F)F)cc4)c(C)cn23)n(C)c1=O
 : 1	-5
C=Cc1cccc(CN2CCC3(CC2)CNC(=O)C3)c1
 : 25	15
Cc1cc(OCC2c3ccsc3CCN2C(=O)CN(CCC(C)C)C(=O)c2ccc(F)cc2)ccc1Cl (stereo not drawn)
 : 16	25
O=C(CC12CC3CC(CC(O)(C3)C1)C2)N1CC=C(c2ccccc2)CC1
 : 8	8

Each structure is followed by: NPYLR7 ag	NPYLR7 ag max-min
Cc1ccc(-c2ccc(=O)n(CC(N)=O)n2)cc1
 : 9	4
CC1CCCN(S(=O)(=O)c2cc(C(=O)NCC(c3ccco3)N(C)C)ccc2Cl)C1 (stereo not drawn)
 : 0	-2
CC(=O)N1CCc2nc(C)nc(N(C)CCCN3CCCC3)c2CC1
 : 13	4
Cc1cccc(NC(=O)Nc2c[nH]c3ccccc23)c1
 : 2	-3
N#CCc1ncc(-c2cc3cc(Br)ccc3oc2=O)s1
 : 4	2
Cc1ccc(C(=O)NCc2ccc(CN3CCCC3)cc2)n1C
 : 0	0
Cc1ccccc1OCCCC(=O)Nc1ccccc1N(C)C
 : 6	4
CC(C)N1C(=O)COCc2cc(-c3ccccc3)ccc21
 : 5	3
Cc1cc(C)c(NS(=O)(=O)c2cccs2)c(C(=O)O)c1
 : 7	4
CCC(C(=O)N(CCCN1CCOCC1)CC(=O)N(Cc1ccc(F)cc1)Cc1ccco1)c1ccccc1 (stereo not drawn)
 : -2	1
Cc1cnc(N2CCC(Oc3cccnc3)CC2)nc1N(C)C
 : 0	-1
CCOC(=O)c1ccc(C(=O)NCc2ccccc2)nc1C
 : 3	1
CN(C)S(=O)(=O)c1ccc(C(=O)NCc2nnc(SCC(=O)Nc3nccs3)n2-c2cccc(Cl)c2)cc1
 : -6	-1
CCOc1ccc(OCC)c(-c2c(=O)n(OCc3ccc(Cl)cc3)c3ccccc3[n+]2[O-])c1
 : 0	-6
Cc1nc2ccc(C(=O)NCCN(C)C)cn2c1N(C)CC1CCCCC1
 : -5	-11

Each structure is followed by: NPYLR7 ag	NPYLR7 ag max-min
Cc1ccc(C2CC(=O)Nc3n[nH]c(C)c32)cc1 (stereo not drawn)
 : 4	5
Cc1ncsc1CCC(=O)N(Cc1nccn1C)C1CC1
 : 5	5
CNC(=O)c1ccc(Cl)c(S(=O)(=O)NC)c1
 : -32	-37
Cc1nc2c(C(=O)N3[C@@H]4CC[C@H]3CN(C)C(=O)C4)cccc2[nH]1
 : -6	-5
O=C(NCc1csc(Cc2ccccc2)n1)c1cn(C2CCCCC2)nn1
 : 7	-7
CCn1nnc2c(=O)n(CC(=O)c3ccccc3)cnc21
 : 2	8
CCN(Cc1ccncc1)C(=O)CSCc1ccccc1Cl
 : 3	-9
CCn1nnc2cc(C(=O)N3CCN(c4ccccc4)CC3)ccc21
 : -1	-1
NC(=O)CCN(C(=O)c1cccc2c1OCCO2)c1ccccc1
 : 5	2
CN(C)CC(=O)N[C@H]1CC[C@@H]2SC[C@@H](C(=O)NCCNc3ccccc3)N2C1=O
 : 0	-1
